# FEN1 inhibitor = blocks human flap endonuclease 1; Recombinant FEN1 flap cleavage, fluorescence, 15 min; Potency, µM (titrated, usually from 114 µM), inactives show at the highest dose activity change, negative = inhibition, hits mostly inhibitors; 0.35% of 390,000 active; note: nearly all actives have a fitted effect of over 65% in size
# Target sequence (P39748 whole entry, looked up): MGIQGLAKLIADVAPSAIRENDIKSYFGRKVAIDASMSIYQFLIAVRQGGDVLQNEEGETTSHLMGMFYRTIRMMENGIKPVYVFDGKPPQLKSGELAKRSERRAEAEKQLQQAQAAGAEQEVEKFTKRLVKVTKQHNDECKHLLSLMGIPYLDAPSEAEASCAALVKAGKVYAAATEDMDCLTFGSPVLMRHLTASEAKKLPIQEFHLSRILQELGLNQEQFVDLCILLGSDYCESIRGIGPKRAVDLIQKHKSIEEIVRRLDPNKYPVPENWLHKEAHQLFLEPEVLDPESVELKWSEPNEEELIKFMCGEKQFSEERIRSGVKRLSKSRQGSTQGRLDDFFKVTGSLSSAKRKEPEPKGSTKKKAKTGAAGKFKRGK
#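 Compounds are tested as a concentration series against 10 nM FEN1; after a 15 min room-temperature preincubation, 50 nM substrate starts cleavage, with plate reads at 0 and 15 min. Normalized responses are fitted by a Hill equation.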
# N370S GC mod = N370S glucocerebrosidase modulation, Gaucher chaperone candidate; AID 2101; Potency, µM (series often up to 59.4 µM), for inactives: at the top dose activity change, negative = inhibition, usual class: inhibitors; P04062; N370S GC spleen homogenate, 4MU-glucoside fluorescence; 0.092% of 330,000 active;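 note: 0% = full enzyme activity and -100% = no enzyme basal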
# An asterisk follows results filed as active; u = inconclusive; x = not tested or not shown; & = joins results of further samples; [ ] = dose if it differs, or a comment. Calls come from the whole dose curve; as a rule, active = well fitted curve in the direction sought with a large enough effect; inconclusive = small, poorly fitted or top-dose-only effect, or another doubt; inactive = no such curve, though single readings can be large; an effect the other way counts as inactive or inconclusive. Unless noted, % is set by controls: 0 for no effect and ±100 for the full control effect; potency is the fitted concentration of half-maximal effect. This is a subset, and most or all hits are left out here.
SMILES,FEN1 inhibitor,N370S GC mod
CN(C(=O)COC(=O)C(Cc1ccccc1)NC(=O)c1ccccc1)c1ccccc1 (stereo not given),13.2%,5.7%
Nc1ccccc1C(=O)NC1CCCCNC1=O (stereo not given),4.9%,2.6%
CN1CCC(NC(=O)NC2CCCCC2)CC1,17.8%,-5.9%
CC(C)Cc1cc(C(=O)Nc2ccc(F)cc2F)no1,-4.7%,0.4%
CCN1C(=O)c2ccccc2S(=O)c2ccc(C(=O)NCc3ccc(C)cc3)cc21 (stereo not given),-15.5%,x
CC(=O)N1CCCc2cc(S(=O)(=O)N3CCC(C(=O)NCc4ccc(N(C)C)cc4)CC3)ccc21,-6.2%,x
COc1cccc(C2CC(c3cccs3)=NN2C(=O)CSC2=NCCS2)c1OC (stereo not given),8.4%,3.4%
COc1ccc(N2CCN(c3nc4ccccc4nc3NS(=O)(=O)c3ccccc3)CC2)cc1,-1.9%,4.8%
CCCCNC(=O)CNC(=S)N(Cc1ccccc1)Cc1cccs1,-9.6%,6.6%
Cc1cccc(NC(=O)Cn2cc(S(=O)(=O)N3CCCC3)c(S(=O)(=O)N3CCCC3)c2)c1C,4.6%,x
CCOc1ccc(/C=C/c2nc(C#N)c(N3CCN(c4ccccc4)CC3)o2)cc1,-6.4%,x
Cc1cc(SCC(=O)c2ccccc2)n2nc(C)nc2n1,11.5%,11.6%
Nc1ncc(Br)cc1S(=O)(=O)NCCC(=O)NCCc1ccccc1,-2.3%,10.6%
O=C(NCCCN1CCOCC1)C(=O)NCc1ccc(Cl)cc1,-1.4%,-3.3%
COc1ccc(NC(=O)c2ccco2)cc1NC(=O)C(C)Oc1ccc(Cl)cc1Cl (stereo not given),-0.9%,x
COc1cccc(Cn2cc(C)cc(NC(=O)NCc3ccccc3)c2=O)c1,-1.8%,1.0%
Nn1c(SCC(=O)Nc2ccccc2F)nnc1C1CCCCC1,17.4%,-5.3%
CCOC(=O)c1cc2c(=O)n3ccccc3nc2n(C(C)C)c1=NC(=O)c1ccncc1,3.4%,-30.7%
COCc1cc(SC2CCCCC2)nc(C)n1,-14.4%,-1.5%
COc1cc(CC2C(=O)Nc3ccccc32)cc(C)c1O (stereo not given),-11.1%,-5.3%

# An excerpt of these results, as tab-separated lines.
SMILES	FEN1 inhibitor	N370S GC mod
CCOC(=O)c1cc2c(=O)n3ccccc3nc2n(C(C)C)c1=NC(=O)c1ccncc1	3.4%	-30.7%
COCc1cc(SC2CCCCC2)nc(C)n1	-14.4%	-1.5%

# Remaining list, next part:
SMILES,FEN1 inhibitor,N370S GC mod
C[C@H]1C=C(C(=O)N2CCOCC2)O[C@@H](OCc2ccc(CO)cc2)C1,-13.8%,12.8%
O=C(COc1ccc(Br)cc1)Nc1ccccc1C(=O)NC1CC1,-1.1%,-7.7%
Cc1n[nH]c(=O)n1-c1cccc(C(F)(F)F)c1,0.7%,-1.3%
Cc1c(C(=O)OCc2ccccc2)nnn1-c1nonc1N,-7.0%,-0.5%
CCC(C)(C)c1nnc(NC(=O)c2cccc([N+](=O)[O-])c2)s1,-7.2%,4.8%
CCOC(=O)c1cnn(-c2nc(SC)nc3sc4c(c23)CCCC4)c1N,-16.8%,-21.6%
CCC(CC)C(=O)c1c[nH]c(C(=O)NN)c1,-8.4%,-5.6%
CSc1ccc(CN(C)C(=O)CSCC(=O)Nc2cc(C)on2)cc1,-1.8%,-2.5%
Cc1ccc2nc(N3CCOCC3)c(C=O)cc2c1,21.1%,16.9%
COC(=O)/C(NC(C)=O)=C(\C)c1ccc(Cl)cc1,-3.8%,3.9%

# 6 compounds already listed, sorted by the value under N370S GC mod, highest first:
mol	N370S GC mod
C[C@H]1C=C(C(=O)N2CCOCC2)O[C@@H](OCc2ccc(CO)cc2)C1	12.8%
CCC(C)(C)c1nnc(NC(=O)c2cccc([N+](=O)[O-])c2)s1	4.8%
COC(=O)/C(NC(C)=O)=C(\C)c1ccc(Cl)cc1	3.9%
Cc1c(C(=O)OCc2ccccc2)nnn1-c1nonc1N	-0.5%
Cc1n[nH]c(=O)n1-c1cccc(C(F)(F)F)c1	-1.3%
O=C(COc1ccc(Br)cc1)Nc1ccccc1C(=O)NC1CC1	-7.7%

# (list continues)
SMILES,FEN1 inhibitor,N370S GC mod
NC(=O)C1(N2CCCCC2)CCN(C(=S)Nc2ccc(S(N)(=O)=O)cc2)CC1,-10.3%,-4.7%
C/C(=N\O)c1ccc2c3c([nH]c2c1)CCCC3,15.8%,7.0%
COc1ccc(-c2cc(C(=O)OC3CCOC3=O)c3ccccc3n2)cc1 (stereo not given),-20.3%,8.9%
N#CC1=C(SCc2ccccc2)NC(=O)CC1c1ccccc1 (stereo not given),-6.2%,-6.1%
O=C(CNCCC1=CCCCC1)Nc1ccc(N2CCCCCC2)cc1,-21.8%,-16.2%
Cc1cc(=O)[nH]c(SCC(=O)NC2CCCCC2)n1,-13.5%,-6.9%
CN(C(=O)CSc1nnc(-c2ccc(Cl)cc2)n1CC1CCCO1)C1CCS(=O)(=O)C1 (stereo not given),9.5%,9.9%
CCN(CC)c1ccc(C2C(C(=O)OC)=C(C)NC(C)=C2C(=O)OC)cc1,-10.7%,7.1%
CC1=C(C#N)C(c2ccccc2)C2=C(N1)c1ccccc1C2=O (stereo not given),u,-21.4%
Cc1c([N+](=O)[O-])ccc(S(=O)(=O)N2CCC(C(N)=O)CC2)c1C,-3.2%,12.7%
O=C(O)c1ccccc1C(=O)Nc1ccc(Br)c2cccnc12,0.2%&-2.2%,-1.5%
O=C(C(=O)N1CCOCC1)c1cn(CCOc2ccccc2)c2ccccc12,-1.3%,18.8%
CCc1nnc(NC(=O)CSc2nnc(C)c(=O)n2N)s1,-3.2%,-4.9%
Cc1cccc(NC(=O)c2cc3ccccc3o2)c1,-20.9%,u
Cc1noc(C)c1-c1cc(N2CCNCC2)ncn1,x,10.0%
COc1ccc(N(C(=O)c2snc(C(N)=O)c2N)C(C(=O)NC2CCCC2)c2ccc(F)cc2)c(OC)c1 (stereo not given),0.9%,u
Cc1nnc(SCC(=O)N2CCN(S(=O)(=O)c3ccc(Cl)cc3)CC2)[nH]c1=O,-4.4%,-6.9%[2.35 µM]
O=C(c1ccco1)N1CCN(C(=O)c2ccc(CS(=O)c3cccc(Cl)c3)o2)CC1 (stereo not given),-4.9%,2.5%
CC1CCCN(c2ncnc3c2cnn3-c2ccccc2)C1 (stereo not given),7.9%,-0.4%
O=C1/C(=C/c2cccnc2)SC(=S)N1CC1CCCO1 (stereo not given),-5.0%,-8.3%
Clc1ccc(CSc2nnc(-c3ccncc3)o2)cc1,-9.1%,7.1%
COC(=O)c1ccc(NC(=O)c2cc(Cl)ccc2OC)cc1,3.2%,20.0%
Cc1ccc(Cn2c(C)c3cnn(CC(=O)N4CCN(c5cc(C)ccc5C)CC4)c(=O)c3c2C)cc1,-6.2%,x
O=C(Nc1cccc(C(F)(F)F)c1)c1cc(S(=O)(=O)N2CCCC2)c[nH]1,1.0%,x
CC(OC(=O)C1=COCCO1)C(=O)Nc1cc(S(=O)(=O)N2CCCCC2)ccc1Cl (stereo not given),-5.9%,-3.4%
O=C(CSc1cccc(C(F)(F)F)c1)NC(=O)NCc1ccco1,-19.2%,-0.8%
COc1ccc(C(=O)Nc2c(C(=O)c3ccc(F)cc3)oc3ccccc23)cc1,1.6%,x
O=C(NCCc1ccccc1)c1ccc(CS(=O)(=O)Cc2ccccc2Cl)o1,10.1%,x
CSc1ccccc1NC(=O)CSc1nnnn1-c1ccccc1SC,-5.7%,11.5%
O=C(Cc1ccccc1)Nc1nnc2n1CCS2,-5.9%,x
CSc1nnc(C(C)(C)C)c(=O)n1/N=C/c1ccccc1O,13.8%,-2.7%
CCOc1ccc(-c2nnc(SCC(=O)NCc3ccccc3Cl)o2)cc1,0.6%,x
Cc1n[nH]c(C)c1Sc1ccccc1[N+](=O)[O-],-2.1%,-8.4%
CC(C)=CC/C=C1\CCC(C(=O)O)C(C(=O)O)C1 (stereo not given),15.0%,-3.3%
O=C(COC(=O)Cc1cccs1)NCC(=O)Nc1ccc(F)cc1,-5.0%,x
CCOc1ccccc1N1CC(C(=O)NC2CCCCCC2)CC1=O (stereo not given),3.5%,x
O=c1/c(=C/c2ccco2)sc2nc(-c3ccccc3Br)nn12,9.6%,15.6%
Cc1cc(N2C(=O)C(O)=C(C(=O)c3cccs3)C2c2ccc(F)cc2)no1 (stereo not given),3.1%,-15.3%
Cn1cc(Br)c(C(=O)NNC(=O)c2ccccc2)n1,0.7%,21.2%
Cc1ccc(S(=O)(=O)N2CCOCC2)cc1NC(=O)COC(=O)c1ccc(Cl)nc1,-10.1%,x
CCc1cc(C(=O)N(C)CC(=O)N(CC(C)C)c2c(N)n(CC(C)C)c(=O)[nH]c2=O)sc1C,-6.0%,0.6%
O=C(O)CC(CC(=O)Nc1ccc(N2CCOCC2)cc1)c1ccccc1 (stereo not given),-1.5%,8.7%
Cc1cc2c(cc1S(=O)(=O)N(C)Cc1ccccc1)OCC(=O)N2,-7.6%,-6.3%
Cn1cnc2c1c(=O)[nH]c(=O)n2C,x,-0.7%
O=C(Nc1ccc(Cl)c(Cl)c1)C1CCN(C(=O)c2ccco2)CC1,-6.6%,1.3%
COCCNC(=O)Cn1nc(C)c([N+](=O)[O-])c1C,1.8%,1.8%
Cc1cc(N2CCOCC2)ccc1/C=C1\NC(=O)N(CC(=O)Nc2ccc(F)cc2)C1=O,-18.3%,10.9%
CC(C)CCNC(=O)C1(c2cccs2)CCOCC1,-3.4%,-12.5%
COc1ccc(Cc2n[nH]c(=S)n(N)c2=O)cc1,8.6%,1.6%
Cc1oc(-c2cccc(Cl)c2)nc1CN1CCC(C(=O)NCC2CCCO2)CC1 (stereo not given),-3.1%,-19.6%
# Later entries
SMILES,FEN1 inhibitor,N370S GC mod
c1ccc2c(N3CCCCCC3)nc(-c3ccncc3)nc2c1,-11.2%,-0.7%
CCn1c(=O)cc(SCC(=O)NCCCN2CCN(c3ccccc3F)CC2)c2ccccc21,2.6%,-5.3%
O=C(NCCN1CCOCC1)/C(=C\c1ccccc1F)NC(=O)c1ccccc1,0.1%,-14.7%
CCOC(=O)C1CCCN(S(=O)(=O)c2c(C)c(C)cc(C)c2C)C1 (stereo not given),-19.1%,3.8%
COc1cc(/C=N/Nc2ncc(C(F)(F)F)cc2Cl)cc(OC)c1OC,-15.3%,-1.6%
Cc1c(C(=O)Cc2ccccc2)n(C)c2ccccc12,-10.8%,-0.6%
C[C@@H](NC(=O)Cn1ccc(NC(=O)OCc2ccccc2)nc1=O)c1cccc2ccccc12,2.6%,x
CCOC(=O)c1oc2ccc(S(=O)(=O)N3CCOCC3)cc2c1C,-0.6%,0.6%
Cc1cccn2c(CN(C)C3CCCc4ccccc43)c(C(=O)N3CCOCC3)nc12 (stereo not given),-10.3%,-2.2%
CC1(C)CC2CC(C)(CN2C(=O)C23CCC(C)(C(=O)C2)C3(C)C)C1 (stereo not given),-2.7%,-10.8%
Cc1nc(-c2ccc(F)cc2)c(CC(=O)N(C)CC(=O)Nc2ccccc2C(F)(F)F)s1,28.5%,0.7%
O=C(/C=C/c1cccs1)Nc1nccs1,-2.7%,-1.9%
CSCCC(NC(=O)c1ccco1)C(=O)N(C)CC(=O)Nc1c(Cl)cccc1Cl (stereo not given),1.3%,-2.3%
COCCN(C(=O)c1ccco1)c1nnc(-c2ccc(OC)cc2)s1,0.9%,21.1%
CC(Sc1nc2ccccc2c(=O)n1CC1CCCO1)C(=O)Nc1ccc(S(N)(=O)=O)cc1 (stereo not given),-6.7%,-2.1%
CSc1ccc(/C=N/N(C)S(=O)(=O)c2ccc(C)cc2)cc1,-2.4%,-7.9%
CCN(CC)CCN1C(=O)C(=O)/C(=C(/O)c2ccncc2)C1c1ccccc1F (stereo not given),-6.5%,-6.3%
Cc1c[n+](CC(=O)c2ccccc2)cs1,0.6%,-8.4%
Cc1ccc(S(=O)(=O)N2CCOCC2)cc1C(=O)OCC(=O)NCCc1ccccc1,-0.8%,x
COc1ccccc1C1SCCN1C(=O)c1ccc([N+](=O)[O-])cc1 (stereo not given),-4.1%,8.5%
C/C(NCc1cccnc1)=C(\C#N)C(=O)NCc1ccccc1,2.7%,-9.9%[2.35 µM]
Cc1ccc(OCC(=O)NNC(=S)NC(=O)c2cccs2)c(C)c1,0.8%,5.3%
O=C(CCc1ccc(O)cc1)c1c(O)cc(O)cc1O[C@@H]1O[C@H](CO)[C@@H](O)[C@H](O)[C@H]1O,-2.6%,-7.8%&0.0%
CCc1ccccc1N(CC(=O)NCC1CCCO1)C(=O)CCC(=O)Nc1nccs1 (stereo not given),-9.4%,-10.3%
CCOC(=O)C1CCCN(Cc2nc(N)nc(Nc3ccc(Cl)cc3)n2)C1 (stereo not given),-5.3%,-0.7%
COCCNC(=O)CN(C(=O)CCC(=O)Nc1ccccn1)c1ccc(C)c(C)c1,9.6%,-5.0%
O=C(N/N=C/c1cccnc1)C(=O)N1CCCCCC1,7.5%,-1.9%
Cn1cccc1Cc1nnc(SCC(=O)Nc2ccc(F)cc2)n1CCc1ccccc1,-19.6%,4.9%
N#Cc1ccc(OCC(=O)NNC(=S)NC2CCCCC2)cc1,15.7%,x
CCCCn1c(N)c(N(CC(C)C)C(=O)c2oc3ccc(OC)cc3c2C)c(=O)[nH]c1=O,-0.7%,0.9%
c1ccc(C2NCCn3cccc32)cc1 (stereo not given),3.7%,-2.0%
CN1C(=O)NC(c2cccc([N+](=O)[O-])c2)C2=C1CCCC2=O (stereo not given),-6.0%,-0.1%
Cc1nnc(SCC(=O)N2CCOCC2)n1C,6.4%,4.4%
Cc1cccc(NC(=O)c2ccccc2Br)n1,6.2%,-2.1%

# Screening results deposited in PubChem by National Center for Advancing Translational Sciences (NCATS).
